Screening data deposited in PubChem BioAssay by Johns Hopkins Ion Channel Center.
KCNQ2 pot – potentiators of rat KCNQ2 potassium channel; O88943; B-score at 10 µM; 310,000 tested, 0.54% active; CHO-K1 KCNQ2, FluxOR thallium flux fluorescence; hits give high values;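 active = fluorescence ratio B-score at least 3 SD of library B-scores, with initial fluorescence B-score within 3 SD, cut at about 5.3 in these data; same plate scores as AID 2156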;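 note: B-score of peak minus minimum over baseline fluorescence ratio after K+ and Tl+ stimulus; positive B-score means potentiation of KCNQ2 with more thallium influx and brighter signal; only the inactives scoring about 0 or higher are listed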
Target sequence (O88943 whole entry, looked up): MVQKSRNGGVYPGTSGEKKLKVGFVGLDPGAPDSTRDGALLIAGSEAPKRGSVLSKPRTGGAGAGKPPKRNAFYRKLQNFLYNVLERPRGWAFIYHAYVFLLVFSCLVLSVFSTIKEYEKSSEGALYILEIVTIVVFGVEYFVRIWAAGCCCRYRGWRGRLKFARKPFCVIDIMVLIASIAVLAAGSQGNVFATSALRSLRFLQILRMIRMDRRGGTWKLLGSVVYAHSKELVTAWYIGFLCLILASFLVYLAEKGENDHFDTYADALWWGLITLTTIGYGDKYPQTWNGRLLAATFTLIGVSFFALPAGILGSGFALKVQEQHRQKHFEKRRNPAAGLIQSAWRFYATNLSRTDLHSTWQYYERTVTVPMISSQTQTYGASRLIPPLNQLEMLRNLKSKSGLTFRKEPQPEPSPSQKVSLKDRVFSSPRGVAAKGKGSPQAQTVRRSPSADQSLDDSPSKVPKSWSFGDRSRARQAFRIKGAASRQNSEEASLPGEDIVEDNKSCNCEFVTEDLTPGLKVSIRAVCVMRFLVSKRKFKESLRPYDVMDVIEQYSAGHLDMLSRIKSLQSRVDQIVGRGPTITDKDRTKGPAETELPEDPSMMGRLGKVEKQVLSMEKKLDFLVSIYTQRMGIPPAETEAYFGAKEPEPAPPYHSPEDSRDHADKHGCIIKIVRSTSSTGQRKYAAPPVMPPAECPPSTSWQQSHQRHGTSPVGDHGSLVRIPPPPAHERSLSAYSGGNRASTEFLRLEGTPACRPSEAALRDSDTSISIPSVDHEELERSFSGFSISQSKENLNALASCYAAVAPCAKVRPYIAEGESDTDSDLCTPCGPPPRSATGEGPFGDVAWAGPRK
KCNQ2 pot baseline – recorded beside KCNQ2 pot, whose call it bears; B-score; compound at 10 µM; measured here: initial fluorescence intensity artifact check;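 brightness before thallium and not channel activity; 0 = typical well and far values either way flag optical interference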
* hit, by the source's call. A portion of the library. The share of hits here may be higher or lower than overall.

SMILES	KCNQ2 pot	KCNQ2 pot baseline
CC(=O)NCc1ccc(S(=O)(=O)NC(C(=O)O)C(C)C)cc1 (stereo not given)	0.89	0.45
Cc1ccc(C(=O)c2coc3ccc(O)c(CN(C)C)c23)cc1	0.31	0.01
CC(Nc1n[nH]c(=O)[nH]c1=O)C(=O)N/N=C/c1cccs1 (stereo not given)	1.9	0.57
COc1cc(NC(=O)COc2cc3oc(=O)cc(C)c3cc2Cl)cc(OC)c1OC	2.4	-0.72
CC(=O)N1CCc2c(sc(NC(=O)C3CC3)c2-c2nc3ccccc3s2)C1	0.19	1.2
COc1ccc(OC)c(NC(=O)CSc2sc3c(O)cc(=O)[nH]c3c2C#N)c1	0.53	-1
CCOc1ccc(S(=O)(=O)Nc2ccc(OC)nc2)cc1	0.91	0.2
Cc1cc(NC(=O)c2ccc(Br)o2)ccc1NC(=O)c1ccco1	0.82	0.74
Cc1nc(SC2CCOC2=O)c2c(C)c(C)sc2n1 (stereo not given)	3.4	-1.2
CCc1ccc(C(C)NC(=O)/C=C/c2ccc(Br)cc2)cc1 (stereo not given)	8.7*	-1.6*
CCCOc1ccc(C2=CSC3=NCCN23)cc1[N+](=O)[O-]	0.46	2.8
O=C(NCCN1CCCc2ccccc21)C1CCC(=O)N(CCc2ccccc2)C1 (stereo not given)	0.39	0.06
COc1ccc(N2CC(=O)N(c3ccc(OC)c(OC)c3)CC2=O)cc1OC	0.65	1.5
Cc1cccc(OCC(=O)NCc2ccncc2)c1C	0.04	0.21
NC(=O)[C@@H]1CCCCNc2c(F)cc([N+](=O)[O-])cc2C(=O)N[C@@H](CCCN=C(N)N)C(=O)NCC(=O)N1	0.54	-0.13
CCOc1ccc(N2C(=O)CC(NCC#N)C2=O)cc1 (stereo not given)	0.4	1.1
CNC(=O)C(=O)NCC1CCCN1S(=O)(=O)c1cccs1 (stereo not given)	0.02	1.4
CCN(CC(=O)Nc1c(F)cccc1F)C(=O)Cc1ccc2c(c1)CCC2	0.04	-1.6
COc1ccc(-c2cn(-c3ccccc3)nc2C(=O)O)cc1OC	0.53	0.92
CC(C)c1nnc(NC(=O)C2CCN(C(=O)Nc3ccccc3)CC2)s1	0.94	0.03
O=C(c1cccc(Cl)c1)N1CCC(c2nc3ccccc3[nH]2)CC1	0.82	2.2
O=C(Nc1nc2c(F)cccc2s1)c1ccco1	0.45	0.94
CCOc1cc(C(=O)NCC(=O)N/N=C/c2sccc2C)cc(OCC)c1OCC	0.82	-0.18
Cc1ccc(NC(=S)N(Cc2cccc(Br)c2)CC2CCC(C(=O)O)CC2)cc1Cl (stereo not given)	0.53	0.56
O=C(Nc1nc(-c2cc3ccccc3oc2=O)cs1)c1ccco1	0.46	-1.3

Among those listed so far, 2 contain an aryl thioether with sulfur outside any ring:
SMILES	KCNQ2 pot	KCNQ2 pot baseline
COc1ccc(OC)c(NC(=O)CSc2sc3c(O)cc(=O)[nH]c3c2C#N)c1	0.53	-1
Cc1nc(SC2CCOC2=O)c2c(C)c(C)sc2n1 (stereo not given)	3.4	-1.2

The list continues.
SMILES	KCNQ2 pot	KCNQ2 pot baseline
CC(=O)n1cc(/C=N/NC(=O)c2ccc(Cl)cc2)c2ccccc21	1.7	-0.77
Cc1ccccc1NC(=O)Cc1nc(COC(=O)c2cccc([N+](=O)[O-])c2)cs1	1.3	-0.53
O=C(NCc1ccncc1)C1CCCN(S(=O)(=O)c2cc(Cl)ccc2Cl)C1 (stereo not given)	1.2	-0.7
COc1ccccc1/C=N/NC(=O)CCn1cnc2ccccc21	0.71	-1.1
COC(=O)c1cccc(CN2C(=O)SC(Nc3ccccc3)C2=O)c1 (stereo not given)	0.6	-0.27
CCOC(=O)CSc1nnc(NC(=O)c2cccc(S(=O)(=O)N3CCCCCC3)c2)s1	0.51	0.65
O=[N+]([O-])c1cc(S(=O)(=O)N2CCCCC2)ccc1NCCCN1CCOCC1	0.59	-0.96
O=C(NCc1ccc2c(c1)OCO2)c1ccc(Cl)c(S(=O)(=O)N2CCOCC2)c1	1.1	-1.3
COc1ccc(CCNC(=O)c2ccc(CNc3c(N4CCOCC4)c(=O)c3=O)cc2)cc1OC	0.65	-1.4
O=C(COc1ccc2ccccc2c1Br)N1CCOCC1	2.2	4
O=[N+]([O-])c1ccc2nc(-c3ccccn3)[nH]c2c1	0.71	-0.72
CN(Cc1c(O)ccc2c1oc(=O)c1ccccc12)C1CCCCC1	0.91	0.91
COc1ccccc1Nc1nnc(SCC(=O)Nc2nc(-c3ccc(F)cc3)cs2)s1	0.01	-0.14
CCCCCCCN1N=C(C)C(C(=O)c2ccccc2)C1=O (stereo not given)	1.3	1.3
C=CCSc1nnc2c(n1)OC(c1cccnc1)Nc1ccccc1-2 (stereo not given)	1.4	0.05
COc1ccc(NC(=O)NNC(=O)C(O)(c2ccccc2)c2ccccc2)cc1	0.02	-0.03
CN1CCN(CCCNC(=O)CCCOc2cc(=O)n(C)c3ccccc23)CC1	1.1	-0.92
O=C1CCCN1CCCNc1ncnc2sccc12	1.8	-0.19
O=C(NCC(c1ccco1)N1CCOCC1)c1c(F)cccc1F (stereo not given)	0.11	-2.2
Cc1onc(-c2ccccc2)c1C(=O)Nc1ccc(N2CCOCC2)cc1	0.37	1.6
CCc1nc(N2CCCC2)c(C#N)c2c1CCCC2	0.03	-0.22
Cc1[nH]nc2cn[nH]c12	1.5	-0.8
O=C(CN(Cc1ccccc1)C(=O)CNS(=O)(=O)c1ccccc1)NCC1CCCO1 (stereo not given)	2.2	-2.6
Cn1c(N)c(C(=O)COC(=O)C2=NNC(=O)CC2)c(=O)n(C)c1=O	0.48	-1
O=C(NCCSc1ccccn1)c1ccc(Cl)cc1	1.1	0.42

Part of the list above, with two lines to a compound:
Second line of a record – KCNQ2 pot	KCNQ2 pot baseline
Cc1[nH]nc2cn[nH]c12
    1.5	-0.8
O=C(CN(Cc1ccccc1)C(=O)CNS(=O)(=O)c1ccccc1)NCC1CCCO1 (stereo not given)
    2.2	-2.6
Cn1c(N)c(C(=O)COC(=O)C2=NNC(=O)CC2)c(=O)n(C)c1=O
    0.48	-1
O=C(NCCSc1ccccn1)c1ccc(Cl)cc1
    1.1	0.42

Further structures
SMILES	KCNQ2 pot	KCNQ2 pot baseline
Nc1nc2nc(-c3ccccc3)cc(=O)n2[nH]1	0.48	0.04
O=C(NCc1ccco1)c1sc2ccccc2c1Cl	1.5	0.03
COC(=O)C1=C(C)NC(C)=C(C(=O)OC)C1c1ccc(OC(=O)c2ccco2)cc1	0.36	-0.17
COc1ccc(C(=O)C2CCCN(C(=O)Cn3ccc(C)n3)C2)cc1OC (stereo not given)	0.45	0.26
CNC(=O)Cn1nc(-c2ccc(Cl)cc2)c2ccccc2c1=O	0.5	-1.2
C=CCOc1ccc(/C=C2\SC(=S)N(CCC(=O)O)C2=O)cc1	2.7	-0.06
CC(=O)NCCc1nc2cc(NC(=O)c3ccc([N+](=O)[O-])cc3)ccc2n1C	0.46	0.46
O=C(O)CN1C(c2ccccc2)=Nc2ccc(Br)cc2C1c1ccccc1 (stereo not given)	2	0.19
CCc1[nH]c(C)c(C(C)=O)c1C	0.87	3
COc1ccc(CCn2nnnc2C(c2ccc(Cl)cc2)N2CCN(C)CC2)cc1OC (stereo not given)	1	0.49
CC(C)C(O)P(=O)(OCc1ccccc1)c1ccc(N(C)C)cc1 (stereo not given)	0.02	-0.14
Cc1c(NC(=S)NC(=O)c2cc3ccccc3o2)cccc1C(=O)O	0.4	-1.3
Cc1ccc(NC(=S)NCc2ccc(Cl)cc2)c(C)c1	5.1	-0.36
CC1CCCCN1C(=O)C12CCC(C)(C(=O)C1)C2(C)C (stereo not given)	2	-0.55
CC(=O)c1c(N)c(C#N)c(C)n1-c1ccc(Br)cc1	0.25	0.41
CN(C(=O)c1coc(=O)c2ccccc12)c1ccc(Br)cc1	0.04	-0.2
O=c1oc2ccccc2cc1-c1cn2cccnc2n1	0.04	-1.5
CCN(CC)CCCNC(=O)c1cc(-c2ccc(Cl)cc2)on1	0.79	0.12
O=C(CSc1nc2ncc(Br)cc2[nH]1)c1ccc([N+](=O)[O-])cc1	0.41	-0.52
NC(=O)Cn1nc(C(F)(F)F)c2c1CCCC2	1.6	-1.8
CCOC(=O)N1CCN(S(=O)(=O)c2cccc3nonc23)CC1	0.45	0.41
O=C(N/N=C/c1ccc(Br)s1)c1ccc([N+](=O)[O-])cc1	0.16	-0.96
COC(=O)c1sccc1OC(C)C(C)=O (stereo not given)	1.6	-1.2
CC1(C(=O)Nc2ccc3ccccc3c2)CC1(Br)Br (stereo not given)	1.6	0.74
CC(C)(C)c1ccccc1OCCCCN1CCCC1	2.4	1.1
Later entries.
SMILES	KCNQ2 pot	KCNQ2 pot baseline
COc1ccccc1NCC(=O)c1ccc(C)c(C)c1	0.06	0.69
CCOC(=O)CSC1=C(C#N)C(c2sccc2C)CC(=O)N1 (stereo not given)	1.5	0.01
CC(C)(C)NC(=O)NC(=O)COC(=O)C1(C)CC1(Cl)Cl (stereo not given)	0.01	0.97
Cc1ccc(NNC(=O)c2cccs2)cc1Cl	2.9	0.79
Cc1nc2ncnn2c(C)c1CCC(=O)NC(C)c1ccc2c(c1)OCCO2 (stereo not given)	0.89	-0.83
CC(C)(C)C1CCc2c(sc(NC(=O)C3CCCO3)c2C(N)=O)C1 (stereo not given)	2.9	-0.49
COc1ccc2[nH]c(=O)c(CN(CC3CCCO3)S(=O)(=O)c3ccccc3)cc2c1 (stereo not given)	1.2	1.2
CC1(C)Cc2ccccc2C(NNC(=O)c2cccnc2)=N1	0.15	0.05
COCCn1nnnc1CN1CCC(NC(=O)Nc2cccc(OC)c2)CC1	0.04	0.65
CCCCN(Cc1ccccc1)S(=O)(=O)c1ccc2c(c1)n(C)c(=O)c(=O)n2C	0.46	0.68
O=[N+]([O-])c1ccc(S(=O)(=O)N(CC(O)CN2CCCCC2)c2ccccc2)cc1 (stereo not given)	0.92	0.25
O=C(NC(CO)c1ccccc1)c1ccco1 (stereo not given)	0.08	0.07
COc1ccc(C(CNC(=O)COc2ccccc2)N2CCOCC2)cc1 (stereo not given)	0.52	1.3
COc1cc(/C=C2/NC(=O)N(Cc3ccccc3F)C2=O)ccc1Oc1ccc([N+](=O)[O-])cn1	0.1	0
CC(C)COc1ccc(C(=O)OC2CC(C)(C)OCC2CN(C)C)cc1 (stereo not given)	0.5	0.16
COc1cccc(NC(=O)CSc2nnc(CNC(=O)c3ccccc3F)o2)c1	1.2	0.02
CCCc1nn(-c2cc(Cl)ccc2OC)c2c1C(=O)CCC2	0.42	-0.03
CCCNS(=O)(=O)c1cc(CN2C(=O)c3cccnc3C2=O)ccc1OC	0.49	2.1
CC(=O)c1cccc(NC(=O)NCc2cccs2)c1	3.2	0.03
CCOc1ccc(NC(=O)c2ccccc2-c2ccccc2C(=O)O)cc1	0.96	0.71
Cc1ccc(S(=O)(=O)c2nc(NCCN(C)C)sc2Cl)cc1	0.05	0.88
CC(NC(=O)CSC1=NCCS1)c1ccccc1 (stereo not given)	0.91	0.68
CCOC(=O)c1ccc(Nc2nc(N)c3cc(OC)c(OC)cc3n2)cc1	0.32	0.41
CCCc1nc(SCC(=O)Nc2ccc(S(=O)(=O)N(C)C)cc2)c2ccccc2n1	0.3	-0.21
CCOCCCn1c(=N)c(S(=O)(=O)c2ccccc2)cc2c(=O)n3cc(C)ccc3nc21	1.6	-0.02
Further entries:
SMILES	KCNQ2 pot	KCNQ2 pot baseline
CN(C)C(CNC(=O)c1ccc(NC(=O)c2cccs2)cc1)c1ccccc1 (stereo not given)	0.1	-0.22
Cc1ccc(NC2=C(NCCO)C(=O)c3ccccc3C2=O)cc1	2.9	-0.99
COc1ccc(C(C(=O)NC2CCCC2)N(C(=O)c2snc(C(N)=O)c2N)c2cccc(O)c2)cc1 (stereo not given)	0.27	-0.3
Cc1cccc(N(CC(=O)NCc2ccco2)C(=O)CNS(=O)(=O)c2ccc(F)cc2)c1	0.94	-0.56
OCCNCc1ccc(OC2CCCC2)cc1	0.64	-1.3
Nc1nc(SCC(=O)Nc2ccc([N+](=O)[O-])cc2Br)n[nH]1	0.59	0.2
O=C(O)c1ccc2c(c1)C(=O)N(CCc1c[nH]c3ccccc13)C2=O	0.31	1.6
O=C(NC(=S)Nc1ccccc1N1CCN(C(=O)c2ccccc2)CC1)c1cccs1	1.1	0.01
Cc1cc(C)c2c(N)c(C(=O)Nc3ccc([N+](=O)[O-])cc3)sc2n1	0.63	1
Cn1c(-c2ccc(F)cc2)cnc1SCC(=O)NNC(=O)Cc1ccccc1	0.44	-1.4
COc1ccccc1N1C(=O)c2cccc3c(C(=O)O)ccc(c23)C1=O	0.46	-1
CC(=O)OCCN1C(=O)c2cccc3cc([N+](=O)[O-])cc(c23)C1=O	0.69	-0.89
CCOC(=O)CNC(=O)N1CCC(CCOc2ccccc2)(C(=O)OCC)CC1	0.25	-0.98
COC(=O)C1C(=O)NCC1c1ccc(OC)cc1 (stereo not given)	1	0.38
CC(=C/c1ccccc1)/C=N/n1c(C)n[nH]c1=S	1.2	-1.6
N#Cc1nc(-c2cccs2)oc1N1CCOCC1	0.26	0.49
COc1ccc(Cl)cc1-c1nc(SCC(=O)NC(C)C)n[nH]1	1.3	1.4
CCOCc1nnc(NC(=O)c2cc(Cl)ccc2OC)s1	2.2	-1.1

4 entries from above, arranged by molar mass, lowest first:
SMILES	KCNQ2 pot	KCNQ2 pot baseline
OCCNCc1ccc(OC2CCCC2)cc1	0.64	-1.3
N#Cc1nc(-c2cccs2)oc1N1CCOCC1	0.26	0.49
Cn1c(-c2ccc(F)cc2)cnc1SCC(=O)NNC(=O)Cc1ccccc1	0.44	-1.4
COc1ccc(C(C(=O)NC2CCCC2)N(C(=O)c2snc(C(N)=O)c2N)c2cccc(O)c2)cc1 (stereo not given)	0.27	-0.3
